TRPML1 inh: inhibitors of human TRPML1 channel. Q9GZU1. TRPML1-inducible cells, Ca2+ dye fluorescence, FDSS; hits give low values; inhibition of EC80 agonist-evoked calcium signal. activity change, negative = inhibition, % (test concentration not listed). 390,000 tested, 0.02% active; in the data active means activity change below about -50%; inconclusive means about -30% to -50%; inactive means above about -30%;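 further: stimulus is agonist 54-4 at its EC80 concentration; on the % scale 0 is the no-effect control and ±100 the full control effect; compound concentration not given in the record; the text of the record puts the active cut at -80%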
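Tet-induced TRPML1-DL cells loaded with Ca8 no-wash calcium dye were read kinetically on FDSS. Compound addition was followed by EC80 agonist 54-4 (4 uM final); inhibition was read over 110 s.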
D2 PAM: human D2 receptor positive allosteric modulation; potentiation, % (concentration not given with the values); P14416; AID 624464; 360,000 tested, 0.23% active; DiscoveRx D2 beta-arrestin cells, luminescence, 90 min; 100% = 57 uM dopamine signal; active = potentiation of 50% or more; inconclusive = 30% to 50%; inactive = 30% or less;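 further: compound concentration not given in the record; tested on top of an EC20 dose of dopamine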
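PathHunter beta-arrestin assay in DiscoveRx D2 cells. Compounds were added with an EC20 of dopamine (50 nM final) for 90 min at 37 deg C. Luminescence was read 1 h after detection reagent, with 57 uM dopamine as the EC100 control.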
Six1-Eya2 inh: Six1/Eya2 interaction inhibition; AlphaScreen GST-Six1/His-Eya2 binding, biochemical; hits give low values; control for the full effect not named in the record; activity change, % (no concentration beside the values); 360,000 tested, 0.56% active; in the data active = activity change below about -65%; inconclusive = about -30% to -65%; inactive = above about -30%; further: on the % scale 0 is the no-effect control and ±100 the full control effect; compound concentration not given in the record
Target sequence (O00167 whole entry, looked up): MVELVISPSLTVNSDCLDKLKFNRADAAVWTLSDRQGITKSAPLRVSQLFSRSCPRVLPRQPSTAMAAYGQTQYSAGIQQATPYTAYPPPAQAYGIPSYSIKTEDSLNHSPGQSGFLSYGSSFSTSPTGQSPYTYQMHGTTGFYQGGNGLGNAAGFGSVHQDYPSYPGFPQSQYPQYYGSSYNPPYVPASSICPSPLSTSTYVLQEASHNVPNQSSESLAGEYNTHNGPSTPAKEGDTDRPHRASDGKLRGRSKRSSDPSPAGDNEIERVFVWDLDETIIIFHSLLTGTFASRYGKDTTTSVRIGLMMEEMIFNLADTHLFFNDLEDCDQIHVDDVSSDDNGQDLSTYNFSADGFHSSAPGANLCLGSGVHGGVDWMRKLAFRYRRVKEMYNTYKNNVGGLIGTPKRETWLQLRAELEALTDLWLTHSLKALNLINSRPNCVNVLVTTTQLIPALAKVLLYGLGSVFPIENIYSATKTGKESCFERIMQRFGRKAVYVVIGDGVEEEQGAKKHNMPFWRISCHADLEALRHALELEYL
Target sequence (Q15475 whole entry, looked up): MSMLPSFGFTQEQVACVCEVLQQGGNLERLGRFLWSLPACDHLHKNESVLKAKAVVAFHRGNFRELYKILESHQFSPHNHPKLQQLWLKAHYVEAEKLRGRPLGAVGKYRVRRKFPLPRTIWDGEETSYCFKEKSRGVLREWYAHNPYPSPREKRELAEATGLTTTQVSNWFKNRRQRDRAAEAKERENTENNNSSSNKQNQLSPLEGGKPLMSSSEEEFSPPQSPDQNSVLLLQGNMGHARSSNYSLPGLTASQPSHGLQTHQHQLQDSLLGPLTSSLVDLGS
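Homogeneous AlphaScreen proximity assay pairing GST-Six1 with His-tagged Eya2 (added as 5X mix: 250 nM and 500 nM) in 50 mM Tris pH 8.0, 300 mM NaCl, 1 mM TCEP. Glutathione donor and nickel acceptor beads; 1 h, 37 °C, dark.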
D2 ag: activates the human D2 dopamine receptor. P14416. DiscoveRx PathHunter D2 beta-arrestin, luminescence, 90 min; 100% = 57 uM dopamine signal. activation, % (test concentration not listed). 360,000 tested, 0.084% active; in the data active = activation above about 40%; inconclusive = about 15% to 40%; inactive = below about 15%; further: compound concentration not given in the record; the text of the record calls up to 30% inactive
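Agonist mode: compounds alone added to overnight-plated D2 PathHunter cells for 90 min at 37 C, with 57 uM final dopamine (EC100) defining full response. Beta-arrestin recruitment detected by chemiluminescent reagent, read after 1 h at ambient temperature.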
TRPML1 agonist: human mucolipin-1 channel agonism | Q9GZU1 | TRPML1-expressing cells, Ca2+ dye fluorescence, FDSS; host cell line not named in the record; reference of the full effect not given here | activation, % (no concentration beside the values) | 410,000 tested, 0.12% active; in the data active = activation above about 50%; inconclusive = about 30% to 50%; inactive = below about 30%; further: 0% is about no effect; the text of the record puts the active cut at 80%
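Agonist activity was taken from a 110 s kinetic Ca2+ dye read on the FDSS after pinning compounds onto TRPML1-DL cells. The cells were seeded at 1,500/well with Tet inducer, incubated about 16 h, then dye-loaded at room temperature.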
PINK1 expr mod: modulators of PINK1 expression; Potency, µM (top dose mostly 76.6 µM), for inactives: at the top dose activation (PINK1 increase), most hits filed as activators; 410,000 tested, 0.2% active; PINK1 immunofluorescence, high-content cytometry, 24 h; active = well fitted activation curve with a large enough effect; inconclusive = small, poorly fitted or top-dose-only effect; inactive = flat fitted curve, though single readings scatter; cell line not stated here;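 further: potency means the concentration at half of the fitted maximal effect; % of control where 0% means no effect; nearly all actives have a fitted effect of over 65% in size; a mitochondrial uncoupler was the plate control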
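Measures PINK1 amount and localization on or inside mitochondria by immunofluorescence. Stable cells get compounds at 5 concentrations for 24 hours before fixation and staining; CCCP controls included.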
The depositor's hits bear a star; ? = inconclusive; . = no result given; & = joins results of further samples; [ ] = remark or other dose.

Under each structure: TRPML1 inh	D2 PAM	Six1-Eya2 inh	D2 ag	TRPML1 agonist	PINK1 expr mod
> CCCOc1ccc(/C=C2/C(=O)ON=C2C)cc1OCC
 : 15.4	3.7	3.9	10.6	1.0	0.4%
> CC(=O)n1cc(Nc2ccc([N+](=O)[O-])cc2)c2ccccc21
 : 41.0	-22.7	3.1	-12.4	-0.3	-0.7%
> C=CCN(c1ccc(F)cc1)S(=O)(=O)c1cc(C(=O)OCC(=O)N(C)C2CCS(=O)(=O)C2)ccc1Cl (configuration not stated)
 : 50.2	-13.4	-12.4	-2.2	3.2	0.3%
> Cc1cccc(NC(=O)c2cn(-c3ccccc3)nc2-c2ccccc2)c1
 : 2.0	-26.1	1.4	-4.6	1.2	8.2%
> CC1=CC2=NC(=O)/C(=C/c3coc4ccccc4c3=O)C(=N)N2O1
 : -8.6	3.5	-3.9	2.7	23.6	10.1%
> COc1cccc(C2CC(c3ccc(Br)cc3)=NN2C(=O)c2ccncc2)c1OC (configuration not stated)
 : 55.3	-9.1	-7.4	-6.9	2.8	10.0%
> CCCOc1ccc(CNC(=O)Cn2c(=O)oc3ccccc32)cc1
 : ?	-2.7	-3.9	2.0	-1.2&-1.1	2.8%&3.0%
> O=C(Nc1ccc2nc(-c3ccccc3)oc2c1)c1ccco1
 : 8.4	-25.3	0.2	-2.4	-0.2	0.4%
> O=C1C(c2ccncc2)N(CCC2=CCCCC2)C(=O)CN1C1CCCCC1 (configuration not stated)
 : 2.0	-4.8	0.4	-3.6	0.2	0.0%[38.3 µM]
> CNC(=O)NCCN1CCCC1=O
 : -7.2	0.8	2.2	-7.1	-0.8	-0.1%
> COc1cc(C(=O)NCc2ccncc2)cc(OC)c1OC
 : -5.9	-4.7	10.5	0.6	0.0	0.5%
> CC(=O)NCc1ccc(C(=O)CSc2nnc(C3CC3)n2C2CC2)cc1
 : -25.6	-3.8	-3.8	-2.7	0.1	-1.7%
> O=C(O)c1ccc(CN(c2ccccc2)S(=O)(=O)c2ccccc2)cc1
 : -16.2	0.8	7.5	-4.3	0.0	0.5%
> CCc1nc2ccc(C(=O)N(C)CC(=O)Nc3cccc(F)c3)cc2nc1CC
 : 13.5	12.0	-1.8	6.4	2.2	0.2%
> CC(Oc1ccc(Cl)cc1Cl)C(=O)/C=C/N(C)C (configuration not stated)
 : 7.6	6.8	-1.8	0.2	-0.6	-0.1%

Reformatted: 2 of the compounds above.
compound,TRPML1 inh,D2 PAM,Six1-Eya2 inh,D2 ag,TRPML1 agonist,PINK1 expr mod
O=C1C(c2ccncc2)N(CCC2=CCCCC2)C(=O)CN1C1CCCCC1 (configuration not stated),2.0,-4.8,0.4,-3.6,0.2,0.0%[38.3 µM]
CNC(=O)NCCN1CCCC1=O,-7.2,0.8,2.2,-7.1,-0.8,-0.1%

More entries follow:
Under each structure: TRPML1 inh	D2 PAM	Six1-Eya2 inh	D2 ag	TRPML1 agonist	PINK1 expr mod
> COc1ccc(O)c(C(=O)c2cnn(C(=O)c3cc(C)oc3C)c2)c1
 : 2.9	-16.8	-5.3	-5.9	1.1	5.4%
> O=C(CSc1nnc(C2CC2)n1Cc1ccccc1)N1CCN(S(=O)(=O)c2ccccc2)CC1
 : 2.1	5.8	4.5	-3.1	-1.5	-1.4%
> COc1cccc(NC(=O)N2CCCC2C(=O)NCC(C)C)c1 (configuration not stated)
 : -14.7	6.6	6.2	-2.5	0.2	-2.1%
> C=CCn1c(N)cc(=O)nc1SCC(=O)N1CCN(c2ccc(F)cc2)CC1
 : 12.8	-8.4	-2.9	-0.8	0.9	-4.7%[38.3 µM]
> O=C(CN1CCN(Cc2ccccc2)C1=O)NCc1cccs1
 : -1.1	-0.2	6.0	-6.3	-0.8	-0.6%
> CCC(=O)Oc1ccc(C(=O)Nc2ccc3c(c2)OCO3)cc1
 : 3.4	-5.7	-0.1	5.8	-0.8	1.6%
> Cc1ccccc1CNC(=O)c1ccc(-n2c(C)cc3c2CCCC3)cc1
 : 4.0	.	.	.	0.3	-1.0%
> CN1CCN(NC(=O)CC(C)(C)C)CC1
 : 22.3	0.5	3.8	-1.9	-0.2	2.4%
> CC(=O)NC(Cc1cccc(C)c1)C(=O)NC1CCN(S(=O)(=O)c2ccccc2)CC1 (configuration not stated)
 : 11.2	-1.5	-2.8	-4.0	0.4	1.6%
> CCCCCN(C(=O)CCC(=O)OCc1cccc(C(F)(F)F)c1)c1c(N)n(CCCC)c(=O)[nH]c1=O
 : -15.9	-23.6	4.8	-0.8	0.8	-0.6%
> COc1ncnc2c1ncn2CCCNCc1ccc(C)o1
 : 30.1	-8.4	8.1	0.9	1.1	0.4%
> CN(C(=O)COC(=O)CNC(=O)C12CC3CC(CC(C3)C1)C2)c1ccccc1
 : 14.1	-0.3	-0.4	-1.4	0.5	2.7%
> CC(C)CN1CCC(=O)N(CCOc2ccccc2)CC1
 : -9.6	-14.8	2.9	-2.3	0.0&-0.6	0.0%
> Cn1ccc2c(-c3cccc(C=O)c3)cc3c(c21)C1CCC3O1 (configuration not stated)
 : 23.0	-6.6	-5.0	-4.9	1.1	2.5%
> COC1=CC(=O)OC12CCCCC2
 : -18.5	5.5	0.6	-0.9	-0.1	1.0%
> CC(=O)C1C(c2ccc3ncccc3c2)NC(=O)NC1(O)C(F)(F)F (configuration not stated)
 : -2.5	-6.5	2.4	-0.8	-0.2	3.5%[38.3 µM]
> CCOC(=O)CNC(=S)n1cnc(N)n1
 : -10.8	-20.7	0.0	-2.8	0.4	-1.5%
> CC1CC(C)CN(CC(O)COc2ccc3c(c2)CCC3)C1 (configuration not stated)
 : 25.5	-13.1	-3.7	1.7	0.3	12.0%
> Cc1cccc(-c2ccc(NC(=O)C3CCN(CC4CC4)CC3)cc2)c1
 : -21.6	-10.8	-0.3	3.4	0.7	0.2%
> CCN(CC)CCN1C(=O)C(O)=C(C(=O)c2sc(C)nc2C)C1c1cccnc1 (configuration not stated)
 : -17.5	-6.8	2.6	0.6	0.7	-1.7%
> CNCC(=O)N(CC(C)C)c1c(N)n(CC(C)C)c(=O)[nH]c1=O
 : 25.3	-4.2	4.6	-7.8	0.9	0.6%
> CCC(=O)NC(=S)Nc1ccc(NC(=S)NC(=O)c2ccc(C)cc2)cc1
 : -2.7	-1.9	6.5	3.8	-0.3	-0.7%
> Cc1ccc(C)c(N(C)C(=O)Cc2c(C(=O)O)[nH]c3ccc(Cl)cc23)c1
 : 36.7	.	.	.	-0.8	0.4%
> O=C(c1cccs1)N1CCN(S(=O)(=O)N2CCCCC2)CC1
 : 8.7	-8.3	-0.6	-2.4	-0.7	0.6%
> Cc1cc(C)cc(NC(=O)CSCc2nc3c(nnn3Cc3ccc(F)cc3)c(=O)[nH]2)c1
 : -7.7	-7.0	-4.1	-2.5	1.8	2.6%[38.3 µM]
> CC(C)C[C@H](NC(=O)OC(C)(C)C)C(=O)N[C@@H](CO)[C@H](O)[C@@H]1C[C@@H]1C(=O)N(C)C
 : -14.4	-1.4	7.3	-4.3	0.1	1.6%
> CC(C)[C@H](N)c1cn([C@@H](CC(N)=O)C(=O)N2CCNCC2)nn1
 : 1.4	-12.4	4.5	-1.5	-0.3	-0.9%
> Cc1coc2c(C)c3oc(=O)c(CCC(=O)NCCc4ccccc4)c(C)c3cc12
 : 0.2	.	.	.	-0.8	0.5%
> Cc1c(Cl)cccc1N1C(=O)C2ON(c3ccccc3)C(c3cccnc3)C2C1=O (configuration not stated)
 : 1.0	?	2.2	2.5	-1.3	-2.2%
> CC(NC(=O)CNC(=O)OCc1ccccc1)C(=O)N1CC(O)CC1C(=O)OCc1ccccc1 (configuration not stated)
 : 0.3	-6.3	7.0	-1.3	-0.3	4.5%
> CC1CCCCC1NC(=O)C1CCN(C(=O)c2sccc2-n2cccc2)CC1 (configuration not stated)
 : 0.6	-0.4	-2.9	-3.9	-0.4	1.7%
> O=C(CN1CCCC1)Nc1sc2c(c1C(=O)Nc1ccc(Br)cc1)CCC2
 : -13.7	-7.9	15.7	-1.1	-0.2	0.7%
> Cc1ccc(CNc2nc(N)c([N+](=O)[O-])c(Nc3ccc(F)cc3)n2)cc1
 : 14.3	16.8	-15.2	1.1	0.7	-2.7%[38.3 µM]
> COc1ccc(C(CC(=O)O)N2C(=O)CCC2=O)cc1 (configuration not stated)
 : -6.0	-5.2	-6.7	-2.1	0.5	-0.3%
> CCn1nc(C(=O)OCC(=O)c2cc(C)n(Cc3cccs3)c2C)c2ccccc2c1=O
 : 9.7	-8.7	-18.8	-1.4	0.1	-1.4%
> Cc1ccc(-c2noc(CCC(=O)NCCN3CCOCC3)n2)cc1
 : 33.2	-26.0	5.1	0.5	0.5	-1.2%
> Cc1nn2c3c(cnc2c1-c1ccccc1)C(=O)CC(c1ccco1)C3 (configuration not stated)
 : -2.9	-2.7	3.3	-3.4	1.8	6.6%
> O=[N+]([O-])c1ccc(S(=O)(=O)NCC2CC3CCC2C3)cc1 (configuration not stated)
 : 14.7	0.2	-6.5	10.7	1.8	0.1%
> COc1ccccc1N(Cc1cc(=O)[nH]c2ccccc12)C(=O)c1cccc([N+](=O)[O-])c1
 : .	-2.2	-8.2	-0.2	.	-0.3%
> O=C(COc1ccccc1Br)NCc1ccccn1
 : 4.3	-10.2	-7.6	-2.1	2.4	1.6%[38.3 µM]
> O=C(Cc1cccs1)Nc1ccc(F)cc1F
 : 2.9	-1.0	0.8	-1.3	0.1	-1.5%
> COc1ccc(-c2nc(C#N)c(N3CCCCC3)o2)cc1
 : 47.0	-9.3	-23.1	-3.8	2.6	1.6%
> CC(C)c1ccc(-n2cccc2/C=C2/C(=N)N3C=CSC3=NC2=O)cc1
 : -4.5	22.3	-20.6	-3.6	0.8	?
> O=c1c2ccccc2cnn1Cc1n[nH]c(=S)n1-c1ccccc1F
 : 39.8	-4.7	-2.0	5.3	1.6	2.4%
> O=C(NCCC1=CCCCC1)c1ccc(Cl)c(S(=O)(=O)Nc2ccccc2)c1
 : -1.1	-12.3	-3.2	-2.4	0.7	-4.8%[38.3 µM]
> CCOCCCNC(=O)C(Cc1ccccc1)NS(=O)(=O)c1cccc2nsnc12 (configuration not stated)
 : -9.7	-7.0	5.9	6.6	2.1	-0.4%
> O=C(/C=C/c1ccc([N+](=O)[O-])s1)N1CCN(c2ccccc2)CC1
 : -0.7	1.7	-0.4	6.9	-0.6	1.7%
